# 2A firefly: Primary qHTS Assay for Foot and Mouth Disease Virus Antivirals against NCGC Sytravon and CBC Compound Libraries: Firefly Luciferase Signal; actives 0.23% (n = 120,000); Potency, µM (top dose mostly 57.5 µM), without a hit: top-dose signal change, negative = less light; HEK cells with a luciferase reporter of 2A StopGo recoding; active = well fitted falling curve with a large enough effect; inconclusive = small, poorly fitted or top-dose-only effect; inactive = no such curve, though single readings can be large or run the other way; note: nearly all actives have a fitted effect of over 60% in size; overnight with compound
# StopGo RLuc: Primary qHTS Assay for Foot and Mouth Disease Virus Antivirals against NCGC Sytravon and CBC Compound Libraries: Renilla Luciferase Signal | actives 0.32% (n = 120,000) | Potency, µM (titrated, usually from 57.5 µM), inactives show top-dose signal change, negative = less light | HEK cells with a luciferase reporter of 2A StopGo recoding; active means well fitted falling curve with a large enough effect; inconclusive means small, poorly fitted or top-dose-only effect; inactive means no such curve, though single readings can be large or run the other way; note: nearly all actives have a fitted effect of over 55% in size; overnight with compound
# Active calls of the source: *; ? = inconclusive; & = joins results of further samples; [ ] = dose if it differs, or a comment. % is set by controls: 0 for no effect and ±100 for the full control effect; potency is the fitted concentration of half-maximal effect. An excerpt; rates above refer to the full screens.
SMILES,2A firefly,StopGo RLuc
COC(=O)C1=C(C)NC(=O)CC1C(=O)Nc1cc(Cl)ccc1C (stereo not given),-7%,-11%
C[C@H](NC(=O)c1cc(-c2ccccc2)nc2ccccc12)C(=O)O,-6%,-10%
CCOc1ccc(OCc2ccc(C(=O)Nc3cc(OC)c(OC)c(OC)c3)o2)cc1,5%,-13%
CC(Oc1cccc(Cl)c1)c1nc(-c2ccncc2)no1 (stereo not given),21%,-2%
CCCCN1CC(C(=O)Nc2ccc(C(=O)Nc3ccccc3F)cc2)CC1=O (stereo not given),110%[activator],0%
Cn1c(COc2ccc(Cl)cc2)nnc1SCCOc1ccc(Cl)cc1,?,?
CNC(=O)CN1C(=O)COc2ccc(S(=O)(=O)N3CCCCCC3)cc21,-9%,-9%
COc1ccc(-c2ocnc2C(=O)Nc2c(C)cccc2C)cc1,6%,-1%
CCOC(=O)N1CCC2(CC1)OC(=O)C(C)=C2C(=O)NCc1cccc(OC)c1,0%,-7%
CCCCCSc1nnc(-c2ccc(Br)cc2)o1,10%,-11%
CC1(C)Cc2ccccc2/C(=C/C(=O)Nc2ccc(Cl)cc2Cl)N1,24%,14%
O=C(NCc1cccnc1)c1nn(-c2ccc(F)cc2)nc1CO,0%,-1%
O=C(COc1ccc(Cl)c(Cl)c1)Nc1ccc2[nH]ncc2c1,38%[activator],17%
COC(=O)c1cc(C)nc2c1c(=O)n(Cc1cccc(Cl)c1)c(=O)n2-c1ccccc1,2%,9%
NCC(c1ccccc1)c1ccccc1,0%,6%
COc1ccc(OC)c2sc(NC(=O)c3ccc(S(=O)(=O)N4CCCC4)cc3)nc12,-1%,5%
COCCn1c(C)cc(C(=O)C(=O)Nc2nnc(COc3cc(C)cc(C)c3)s2)c1C,4%,-1%
Cc1cc(C)c(C)c(S(=O)(=O)N2CCN(CC(=O)NC(=O)NC(C)(C)C)CC2)c1C,?,?
CCC(=O)Nc1ccc2nc(-c3ccccc3C)oc2c1,197%[activator],1%
Cc1ccc(C)c(Cn2nnc(C(=O)NCc3ccccc3)c2N)c1,24%,-5%
Cc1[nH]c2ccccc2c1C(=O)COC(=O)Cc1c[nH]c2ccccc12,-2%,12%
CCN(CC)C1=NC(C(F)(F)F)(C(F)(F)F)N=C(c2cccc(OC)c2)O1,44%[activator],0%
CCCc1cc(=O)n2c(C(=O)Nc3ccc(C)c(C)c3)c(C(=O)Nc3ccccc3)sc2n1,5%,0%
O=C(CCC1CCCC1)N1CCc2c([nH]c3ccccc23)C1c1ccc(F)cc1 (stereo not given),-26%,?
CCCc1noc(C(C)N2CCC(c3nc4cc(Cl)ccc4o3)CC2)n1 (stereo not given),?,?
Cc1ccc(C(C)C)c(OCC(=O)Nc2ccc(C(=O)OC3CCCCC3)cc2)c1,6%,10%
CC(C)Oc1ccc(CNC(=O)c2ccc(CS(=O)c3cccc(Cl)c3)o2)cc1 (stereo not given),-15%,-5%
NN=C(N)N,-4%[11.5 µM],-8%
O=C(CSc1nc2ccccc2c(=O)n1CC1CCCO1)Nc1cccc(C(F)(F)F)c1 (stereo not given),-11%,262%[activator]
Cc1ccccc1-c1nc(S(=O)(=O)c2ccc3c(c2)OCCO3)c(N2CCN(C)CC2)o1,1%,128%[activator]

# The final 3 records of the section above come first, to join the parts:
SMILES,2A firefly,StopGo RLuc
NN=C(N)N,-4%[11.5 µM],-8%
O=C(CSc1nc2ccccc2c(=O)n1CC1CCCO1)Nc1cccc(C(F)(F)F)c1 (stereo not given),-11%,262%[activator]
Cc1ccccc1-c1nc(S(=O)(=O)c2ccc3c(c2)OCCO3)c(N2CCN(C)CC2)o1,1%,128%[activator]
O=C(Nc1cccc(N2CCCC2=O)c1)C1CCN(S(=O)(=O)c2cc(Cl)ccc2Cl)CC1,-9%,-3%
CCOC(=O)c1noc2ncn(Cc3ccc([N+](=O)[O-])cc3)c(=O)c12,-22%,-9%
CN(C)S(=O)(=O)c1cc(C(=O)NCc2ccc(N3CCCC3)nc2)ccc1Cl,-15%,18%
Cc1cc(SCC(NC(=O)c2ccccc2)C(=O)O)c2ccccc2n1 (stereo not given),59%[activator],360%[activator]
Cc1ccc(/C=N/NC(=O)c2ccc(-c3ccccc3)cc2)s1,33%,-5%
COc1cccc(N2C(=O)CN(C3CCCCC3)[C@H]3CS(=O)(=O)C[C@H]32)c1,31%[activator],5%
N#Cc1ccc(COC(=O)c2cccnc2N2CCOCC2)cc1,?,2%
CC(=O)c1cccc(NC(=O)C2CCN(C(=O)c3cnn(-c4ccccc4)c3-n3cccc3)CC2)c1,-3%,6%
O=C(O)/C=C/c1ccc(-c2ccc(Br)cc2Cl)o1,0%,11%
Cc1nc(-n2nc(C)c(CCC(C)C)c2C)sc1C(=O)Nc1cccc(Cl)c1,-1%,-3%
COc1ccc(CCNC(=O)Cn2c(=O)c3cccn3c3ccccc32)cc1OC,-1%,-13%
CN(C)c1ccc(CNC(=O)CCC(=O)N2Cc3ccccc3Oc3ncccc32)cc1,21%,-12%
Cc1ccc2nc(N3CCC(C(=O)NCc4ccc(F)cc4)CC3)[nH]c2c1,-1%,-23%
NC(=O)c1cccnc1,-18%,-10%
CCCCCOC(=O)Nc1nc(=O)n([C@@H]2O[C@H](C)[C@@H](O)[C@H]2O)cc1F,-10%[11.5 µM],8%

# Three structures already listed, ordered by molecular weight, high to low:
SMILES,2A firefly,StopGo RLuc
Cc1nc(-n2nc(C)c(CCC(C)C)c2C)sc1C(=O)Nc1cccc(Cl)c1,-1%,-3%
COc1cccc(N2C(=O)CN(C3CCCCC3)[C@H]3CS(=O)(=O)C[C@H]32)c1,31%[activator],5%
CCCCCOC(=O)Nc1nc(=O)n([C@@H]2O[C@H](C)[C@@H](O)[C@H]2O)cc1F,-10%[11.5 µM],8%

# (continued)
SMILES,2A firefly,StopGo RLuc
O=C(NCc1ccncc1)c1cc2cc(Cl)ccc2[nH]1,0%,8%
Cc1cc2ccccc2n1CC(=O)N1CCN(C(=O)C2CC2)CC1,-6%,-3%
Cc1nc(N2CCCC2)cc(N2CCN(C(=O)c3ccc(C(F)(F)F)cc3)CC2)n1,-18%,-16%
CC(=O)c1cccc(NC(=O)c2nc3ccccc3nc2N2CCCCC2)c1,19%,7%
O=C(O)c1cccc(OCc2nnnn2-c2ccc(Br)cc2)c1,-4%,-3%
COc1ccc(-c2noc(Cn3c(=O)c4ccccc4n(CC(=O)NCc4ccccc4)c3=O)n2)cc1,7%,5%
O=C(O)c1cccc(S(=O)(=O)NCc2ccco2)c1,9%,-11%
Cn1c(C(=O)N2CCC(C(=O)NCCc3ccc(S(N)(=O)=O)cc3)CC2)cc2sccc21,10%,3%
COC(=O)c1cc(NC(=O)CC2C(=O)OCCN2Cc2ccccc2)cc(C(=O)OC)c1 (stereo not given),-9%,-5%
CCCCn1c(=O)[nH]c(=O)c2c1ncn2CCC(C)C,5%,-1%
Cc1ccc(SC(C)C(=O)Nc2c(C)cccc2C)cc1 (stereo not given),2%,16%
CCc1ccc(C(=O)c2cn(CC(=O)Nc3ccc4c(c3)OCO4)c3cc(OC)c(OC)cc3c2=O)cc1,3%,-3%
CCOc1ccc2nc(N(Cc3cccnc3)C(=O)c3cccs3)sc2c1,55%[activator],4%
Cc1sc2ncn(CC(=O)N(C)c3ccc(Br)cc3)c(=O)c2c1S(=O)(=O)N1CCC(C)CC1,1%,4%
COc1ccc(C(=O)Nc2ccc3oc(-c4ccc(F)cc4)nc3c2)cc1OC,86%[activator],-13%
Cc1c(C#N)oc2ccccc12,-6%,-11%
CCC(O)c1nc2ccccc2n1CCOc1cc(C)cc(C)c1 (stereo not given),?,?
COc1ccc(S(=O)(=O)N2CCC(C(=O)NC(C)c3ccccc3)CC2)cc1 (stereo not given),-19%,2%
CCOC(=O)c1c(C)oc2nc(C)nc(NCCCN3CCN(c4ccccc4OC)CC3)c12,-1%,-12%
CC(=O)N1CCOc2cc(S(=O)(=O)Nc3c(C)cccc3C(C)C)c(Cl)cc21,-16%,115%[activator]
Cc1c(NC(=O)c2ccc(N3CCC(C)CC3)c([N+](=O)[O-])c2)cccc1-c1nc2ccccc2o1,-21%,-10%
COc1cccc(C(=O)OCC(=O)c2ccc(OC(=O)c3ccco3)cc2)c1,16%,2%
CCN(CC)c1ccc(NC(=O)C2CCN(S(=O)(=O)c3c(C)noc3/C=C/c3ccccc3F)CC2)c(C)c1,?,-6%
Cc1ccc2nc(-c3ccc(NC(=O)COc4ccc(Cl)c(C)c4)cc3)sc2c1,101%[activator],-1%
CNC(=O)c1ccc(CN(C)C(=O)c2ccc(S(=O)(=O)NC3CC3)cc2)cc1,9%,5%
O=C(NC1CCS(=O)(=O)C1)c1cnn(-c2ccc(F)cc2)c1-n1cccc1 (stereo not given),-4%,-10%
Cc1cc(C)cc(OCC(=O)NCC2(N(C)C)CCCCC2)c1,-8%,1%
COc1ccc(NC(=O)C2CCCN(c3cnccn3)C2)c(OC)c1 (stereo not given),-8%,11%
CCn1cc(S(=O)(=O)c2ccc(C)cc2C)c(=O)c2cc(F)c(N3CCCCC3)cc21,0%,1%
CCc1cc(CC)n(-c2nc3c(c(=O)n(CCN4CCCCC4)c(=O)n3C)n2CC)n1,-3%,-3%

# Shown with two lines to a compound: part of the list above
# Results follow in this order: 2A firefly	StopGo RLuc
COc1ccc(NC(=O)C2CCCN(c3cnccn3)C2)c(OC)c1 (stereo not given)
→ -8%	11%
CNC(=O)c1ccc(CN(C)C(=O)c2ccc(S(=O)(=O)NC3CC3)cc2)cc1
→ 9%	5%
Cc1cc(SCC(NC(=O)c2ccccc2)C(=O)O)c2ccccc2n1 (stereo not given)
→ 59%[activator]	360%[activator]
COc1ccc(C(=O)Nc2ccc3oc(-c4ccc(F)cc4)nc3c2)cc1OC
→ 86%[activator]	-13%
COC(=O)C1=C(C)NC(=O)CC1C(=O)Nc1cc(Cl)ccc1C (stereo not given)
→ -7%	-11%

# Later entries.
SMILES,2A firefly,StopGo RLuc
CC(=O)c1cc2c(cc1NC(=O)CSc1nnc(C3CC3)n1C1CC1)OCO2,17%,18%
Cc1cc(C)cc(NC(=O)CSCn2nnc3c(=O)[nH]c(Cc4ccc(F)cc4)nc32)c1,-3%&0%,-4%&-4%
CCCCCOc1ccc(C(=O)CCC(=O)O)cc1,-13%,-5%
CN(Cc1ccccc1)S(=O)(=O)c1ccc(F)c(C(=O)Nc2ccccc2C(F)(F)F)c1,-12%,0%
Cc1ccc(N2C(=O)c3ccccc3NC23CCSC3)cc1 (stereo not given),66%[activator],5%
NC(=O)c1ccc(CN(CCc2cccs2)Cc2cccs2)cc1,4%,-7%
O=C(NCc1cccs1)C1(c2cccc(C(F)(F)F)c2)CCOCC1,-12%,-9%
CC(Sc1cn(CCNC(=O)c2ccccc2F)c2ccccc12)c1ccccc1 (stereo not given),-18%,-28%
Cc1cccc(OCC(=O)OCc2cc(=O)n3nc(-c4cccs4)sc3n2)c1,-6%,-14%
Cc1nc(N(C)C)ncc1C(=O)NCc1ccccc1Cl,46%[activator],97%[activator]
COc1ccccc1N(CCC#N)C(=O)Cn1nc(C(=O)O)c2ccccc2c1=O,-8%,-10%
O=C(NCc1ccccc1Cl)c1cnc(N2CCCCC2)c2ccccc12,41%[activator],157%[activator]
C=CCOc1ccc(NC(C)=O)cc1,48%[activator],0%
COCc1nnc(NC(=O)Cn2ccc3ccc(F)cc32)s1,20%,16%
COCCNC(=O)CSc1nc(-c2cc(OC)c(OC)c(OC)c2)[nH]c1-c1ccc(Cl)cc1,30%[activator],45%[activator]
O=C(CSc1nnc(-c2c[nH]c3ccccc23)o1)N1CCNC1=O,59%[activator],-9%
O=C(CCc1c[nH]c2ccccc12)NCc1ccc(CN2CCCC2)cc1,-4%,-12%
COc1ccc(NC(=O)CC2C(=O)N(c3cccc(C)c3)C(=O)N2Cc2cccnc2)cc1 (stereo not given),-10%,-3%
CCN(CC)c1ccc(NC(=O)c2cccn2-c2nnc(N3CCCCC3)s2)c(C)c1,-24%,-11%
CCCCc1cc(=O)oc2c(C)c(OCC(=O)OC(C)(C)C)ccc12,-2%,-1%
Cc1ccc2c(=O)cc(C(=O)Nc3c(C(=O)c4ccccc4)oc4ccccc34)oc2c1C,3%,-4%
Cc1ccc(NC(=O)c2c(C)oc(C)c2C)c(O)c1,138%[activator],10%
CCc1ccc(OCC(=O)OCC(=O)c2cc3ccccc3o2)cc1,13%,2%
Cc1nn(CC(=O)Nc2ccc3nc(CN4CCCCC4)n(C)c3c2)c(=O)c2ccccc12,10%,4%
Clc1ccccc1-c1nnc2ccc(SCc3ccco3)nn12,-24%,-33%
CC(C)NC(=O)C1CCC(Cn2cnnn2)CC1 (stereo not given),1%,-7%
CCOc1ccccc1C(=O)N1CC(=O)Nc2ccc(C)cc2C1c1ccccc1 (stereo not given),24%,196%[activator]
CCn1nc(C(=O)Nc2ccc(S(=O)(=O)N(C)C)cc2)c2ccccc2c1=O,0%,28%
CCCCn1c(=O)[nH]c(=O)c2c1nc(COC(=O)C1(C#N)CCCC1)n2C,-7%,-16%
Cc1ccc(NC(=O)c2cc[n+]([O-])cc2)cc1Cl,45%[activator],10%
